Source: PubChem
Autofluor counter: compound fluorescence in toxin protease inhibitor counterscreen; compound autofluorescence counterscreen, microsphere flow cytometry; hits give high values; fluorescence intensity (concentration not given with the values); 360,000 compounds, 3.1% hits;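 active = at least 3 SD above the mean of all compounds, about 16000 in these data; inconclusive = too few beads counted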;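 note: 100 nL of 1 mM stock went into each well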
Mtb hypoxia inh: reduces hypoxia-regulated biosensor signal in M. tuberculosis. M. tuberculosis hypoxia-regulated fluorescent reporter, fluorescence. fluorescence inhibition, % (test concentration not listed). 300,000 compounds, 0.1% hits. AID 1159583;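 active = 35 to 45% if threefold the growth effect, above 45% if 1.5-fold the growth effect; inactive = the rest, general growth blockers included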;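 note: wells of about 50 µL received 100 nL stock; 0% = vehicle wells and 100% = reference inhibitor wells; whole bacteria with a GFP reporter of the hypoxia response; strong numbers were not always called active; many hits fall short of the cut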
BJeLR lethal: kills HRASV12-expressing BJeLR cells; 300,000 compounds, 0.17% hits; BJeLR (HRASV12) viability, CellTiter-Glo ATP luminescence, 48 h; reference of the scale not given here; AID 1554; inhibition, % (no concentration beside the values);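 active = replicate mean above 50%; inconclusive = above 50% but judged a plate artefact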;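 note: 50 nL library stock added to about 25 µL; numbers are from one replicate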
Sa RN4220 lethal: kills Staphylococcus aureus RN4220 | S. aureus RN4220 growth, OD600, 16 h | inhibition, % (test concentration not listed) | 330,000 compounds, 0.33% hits;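 active = z-score of -3 or lower and OD600 up to 0.18 on both plates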;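 note: plate controls were untreated cells for no effect and reference antibiotic for full effect; stock transfer was 100 nL into about 80 µL; one replicate is shown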
PrP UTR inh: suppresses PrP 5' UTR mRNA reporter expression; cell-based PrP 5' UTR mRNA reporter, plate reader; inhibition, % (concentration not given with the values); 340,000 compounds, 0.35% hits;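 active = every replicate at 50% or more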;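 note: 0 = median of the neutral control wells; tested in H4 reporter cells; numbers are from one replicate; inactives centre near -14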
Sa ugtP lethal: kills S. aureus RN4220 lacking UgtP; S. aureus RN4220 ugtP deletion, OD600 growth, 16 h; some inactives read as strong as hits; growth inhibition, % (test concentration not listed); 330,000 compounds, 0.54% hits;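 active = z-score under -3 and OD600 up to 0.15 on both plates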;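 note: plate controls were untreated wells for no effect and antibiotic for full effect; wells of about 80 µL received 100 nL stock; the first replicate is given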
Mtb hypoxia inh growth: recorded beside Mtb hypoxia inh, whose call it bears; growth inhibition, %; measured here: M. tuberculosis growth (absorbance);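 0% = vehicle and 100% = reference antibiotic; read after six days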
Active calls of the source: *; ? = inconclusive; / = no result given. Rows were taken by chance. Share with any hit: about 3.9%.

The first seven compounds (preview)
SMILES	Autofluor counter	Mtb hypoxia inh	Mtb hypoxia inh growth	BJeLR lethal	Sa RN4220 lethal	PrP UTR inh	Sa ugtP lethal
COc1ccc(N=C2C(=O)Nc3ccccc32)cc1	22766*	7	-4	-10	0.6	-11	-2
CCN1CCN(Cc2nc3ccc([N+](=O)[O-])cc3c(=O)n2-c2ccccc2F)CC1	3670	0	1	-5	4.2	-22	7
COc1cc(C=NNc2nncn2N)ccc1OC(C)=O	/	1	0	/	3.8	/	2
COc1ccc(-c2cc(C(F)(F)F)nc(SCC(=O)NCc3cccs3)n2)cc1OC	2688	4	4	2	3.2	-7	22
COc1ccc(-c2ccc3c(c2)C2CC3CCN2C(=O)C(C)(C)C)cc1 (stereo not drawn)	3793	-9	1	/	-1.4	-10	19
CCc1cccc(C)c1NC(=O)CCCSc1nc2ccccc2s1	2585	9	9	0	4.4	-5	1
Cc1cc(NC(=O)c2cc(-c3ccccc3)on2)no1	3669	14	6	-3	3.4	-18	-5

This part in full, from the start:
SMILES	Autofluor counter	Mtb hypoxia inh	Mtb hypoxia inh growth	BJeLR lethal	Sa RN4220 lethal	PrP UTR inh	Sa ugtP lethal
COc1ccc(N=C2C(=O)Nc3ccccc32)cc1	22766*	7	-4	-10	0.6	-11	-2
CCN1CCN(Cc2nc3ccc([N+](=O)[O-])cc3c(=O)n2-c2ccccc2F)CC1	3670	0	1	-5	4.2	-22	7
COc1cc(C=NNc2nncn2N)ccc1OC(C)=O	/	1	0	/	3.8	/	2
COc1ccc(-c2cc(C(F)(F)F)nc(SCC(=O)NCc3cccs3)n2)cc1OC	2688	4	4	2	3.2	-7	22
COc1ccc(-c2ccc3c(c2)C2CC3CCN2C(=O)C(C)(C)C)cc1 (stereo not drawn)	3793	-9	1	/	-1.4	-10	19
CCc1cccc(C)c1NC(=O)CCCSc1nc2ccccc2s1	2585	9	9	0	4.4	-5	1
Cc1cc(NC(=O)c2cc(-c3ccccc3)on2)no1	3669	14	6	-3	3.4	-18	-5
O=C(NCCCN1CCCC1=O)C1CCC(CNS(=O)(=O)c2ccc(Cl)cc2)CC1 (stereo not drawn)	4426	-1	-7	11	0.4	15	4
O=C(CCC(=O)Nc1ccc(F)cc1)N/N=C/c1cccs1	6561	/	/	-2	/	-28	/
COc1cc(CN2CCC(CO)(Cc3cccc(C(F)(F)F)c3)CC2)ccc1F	3915	0	8	10	2.1	-9	-2
Cc1ccc(NC(=O)c2cc3ccccc3oc2=N)cc1	3749	4	12	-1	2.6	67*	-2
O=C(CNC(=O)c1cccc(Cl)c1)N/N=C/C=C/c1ccccc1	2430	/	/	1	/	-3	/
CC(=O)Nc1ccc(S(=O)(=O)NC(C(=O)O)C(C)C)cc1 (stereo not drawn)	11282	-8	-2	-7	0.1	/	0
CC(C)N1C/C(=C/c2cccnc2)C(=O)/C(=C/c2cccnc2)C1	8788	11	16	/	5.3	-26	1
c1ccc(Cn2nc(-c3ccccc3)nc2-c2ccccc2)cc1	2085	17	7	-4	3.7	-21	17
CCCCCCN(C(=O)CCCCCN1C(=O)NC(c2ccc([N+](=O)[O-])cc2)C(C(=O)OCc2ccccc2)=C1C)C(C(=O)NCCCC)C1CCCCC1 (stereo not drawn)	3630	2	4	/	4.6	-11	-1
O=C(O)CSCCn1cccn1	9386	2	12	0	9.7	-34	-13
O=C(NCCc1ccccc1)C(=O)NCC1OCCCN1S(=O)(=O)c1cccs1 (stereo not drawn)	6676	4	0	3	0.6	-22	5
Cc1cc(C(=O)NN=Cc2sccc2C)no1	/	8	3	/	6.8	/	-4
CCOc1ccc(NC(=O)C2CCN(C(=O)C3CC(=O)N(c4ccc(C)cc4)C3)CC2)cc1 (stereo not drawn)	3503	-6	1	-10	2.7	-11	8
O=C(c1cc(COc2ccc(F)cc2F)on1)N1C[C@H]2CC[C@H]1C2	?	10	1	-10	7.4	-22	10
CC(C)(C)c1ccc(OCCCNC2CCCC2)cc1	4768	15	20	3	3.2	-19	20
CCOC(=O)c1ccccc1NC(=O)Nc1ccc(OC)c(OC)c1	8366	-9	-7	-18	4.3	-8	3
CN(C)c1ccc(Nc2c3c4c(cccc4n(C)c2=O)C(=O)c2ccccc2-3)cc1	1870	7	5	/	3.3	-13	-6
COc1ccc(N=C(C)c2c(O)n(C)c(=O)n(C)c2=O)c(OC)c1	2912	12	8	5	12	-22	0
Nc1nc(SCc2ccccc2Cl)ns1	9930	14	6	-2	3.5	-20	8
NS(=O)(=O)c1cccc(NC(=O)CSc2n[nH]c(-c3cccs3)n2)c1	5558	0	6	/	2.2	2	5
Fc1ccc(Br)cc1/C=N/n1cnnc1	2993	/	/	-5	/	-19	/
CC(C)CNc1ncnc2[nH]ncc12	4229	-1	12	/	-0.7	-12	1
O=S(=O)(/N=C(/Nc1ccccc1F)c1ccccc1)c1ccccc1	3900	/	/	-3	9.3	-6	-3
C=CCNC(=S)N/N=C/c1ccc(C(F)(F)F)cc1	4122	/	/	13	/	-14	/
OCCC1CN(Cc2cccn2-c2ccccn2)CCN1C1CCCC1 (stereo not drawn)	3963	8	8	-1	13	-40	5
Cc1cc(C)c(NC(=S)NC(NC(=O)c2ccccc2)C(Cl)(Cl)Cl)c(C)c1 (stereo not drawn)	7844	10	0	-1	-3.8	5	-17
O=S1(=O)NC[C@]23C[C@H](c4ccc(F)cc4)[C@@H](C[C@@H]21)O3	4594	/	/	8	/	-20	/
CCn1c(N)c(C(=O)NCc2ccc3c(c2)OCO3)sc1=S	4830	/	/	-2	1.5	-12	-1
O=c1[nH]c(SCc2n[nH]c(=S)n2-c2ccccc2)nc2sc3c(c12)CCC3	8052	-4	-5	1	3.6	14	-3
C(=C\n1nnc2ccccc21)/c1ccc[nH]1	4034	4	0	2	-10	-23	-12
COc1ccc(S(=O)(=O)Nc2ccc(-n3cnnn3)cc2)cc1[N+](=O)[O-]	3799	8	9	/	3.3	-15	4
Nc1ccc2oc(C3CCCCC3)nc2c1	3708	-13	3	0	0.9	-43	-5
CN1CCC(=O)N([C@H](COc2ccccc2)Cc2ccccc2)CC1	4191	/	/	-2	/	-11	/
S=c1[nH]nc(-c2ccco2)n1N=Cc1cccc(Cl)c1Cl	/	4	7	/	6.9	/	-14
C=CCn1c(SCC(=O)Nc2nc3ccccc3s2)nnc1-c1ccccc1O	6835	4	-5	-1	9.8	-9	-12
COc1ccc(-c2[nH]ncc2/C=N\NC(=O)c2ccc(Br)o2)cc1OC	4340	/	/	4	/	-28	/
Cc1cccc(C)c1NC(=S)N1CCCCCC1	5942	/	/	3	/	-18	/
O=C(Nc1ccc2c(c1)OCO2)c1cnc2n(c1=O)CCS2	22821*	-4	6	-20	-3.1	-86	-12
COc1ccccc1CN(C)C(=O)C(c1ccccc1)c1ccccc1	4779	13	6	-8	12	-24	9
O=C(CCC(=O)NC12CC3CC(CC(C3)C1)C2)NC1CCCCC1	3752	7	-10	8	0.8	-15	-1
O=C(NCCCn1ccnc1)C(=O)Nc1ccccc1	4479	-12	6	-3	-0.7	-33	0
O=C(Cc1ccc(F)cc1)N1CCOCC1	3314	4	2	-5	2.7	0	8
O=C(CSCc1ccc(F)cc1)Nc1ccc(N2CCOCC2)cc1N1CCOCC1	5697	-3	9	/	3.2	9	-2
CC(=O)C1=C(O)C(=O)N(CCC(=O)O)C1c1cccc(F)c1 (stereo not drawn)	8770	13	5	-6	0.8	-33	4
COc1ccccc1-n1cnc2sc(-c3ccccc3)cc2c1=O	10337	3	5	-1	2.2	-39	2
O=C(c1cccs1)N1CCN(C2CCN(Cc3ccccc3)CC2)CC1	3609	/	/	-16	4.6	-8	2
C=CCn1c(=O)c(C(C)=O)cn(N(C)c2ncc(C(F)(F)F)cc2Cl)c1=O	3441	3	-3	-5	4.1	-46	13
O=C(NCC1CCCO1)c1cccc(N2CCCC2=O)c1 (stereo not drawn)	/	/	/	7	1.7	-17	2
O=C(COC(=O)c1cc([N+](=O)[O-])ccc1N1CCOCC1)NCc1ccc(Cl)cc1Cl	5577	-13	1	10	-2.0	-18	-15
CCc1ccccc1NC(=O)COc1cccc2ccc(C)nc12	9279	3	0	0	8.3	-16	6
Cc1csc(NC(=O)C=Cc2ccc(C)o2)n1	/	6	2	/	2.5	/	-5
Cc1cccc(-c2nnc(-c3cccc(NC(=O)Cc4cccs4)c3)o2)c1	7824	2	7	7	-0.1	-36	-15
O=C(O)CC1Oc2ccc(Cl)cc2NC1=O (stereo not drawn)	6264	/	/	-4	3.6	-12	-2
(listing goes on)
SMILES	Autofluor counter	Mtb hypoxia inh	Mtb hypoxia inh growth	BJeLR lethal	Sa RN4220 lethal	PrP UTR inh	Sa ugtP lethal
Cc1ccc(Nc2cc(=O)[nH]c(=O)[nH]2)cc1Cl	4485	8	6	1	30	-33	11
O=C(Nc1cccc(S(=O)(=O)N2CCCCCC2)c1)C1CC(=O)N(c2ccc3c(c2)OCCO3)C1 (stereo not drawn)	6221	-4	8	-5	0.1	-12	4
CCOc1ccccc1C(=O)Nc1nnc(COC)s1	/	10	5	-8	-1.1	-17	-2
CC(=O)NC(CC(=O)N(C)Cc1cccc(Cl)c1Cl)c1ccccc1 (stereo not drawn)	4084	0	8	/	-6.8	-9	-1
CCOc1cc(C(=O)NCCOC)ccc1OC	6106	/	/	5	1.4	-30	1
CCOC(=O)N1CCN(C(=O)C(C)n2nc(C)n3c(cc4sccc43)c2=O)CC1 (stereo not drawn)	8284	16	9	0	4.7	-15	7
CC1CCCCN1CCNC(=O)C1CCN(S(=O)(=O)c2cccc3nsnc23)CC1 (stereo not drawn)	9414	-10	11	-1	0.1	-3	0
CCOC(=O)C(NC(C)=O)(Nc1ccc(F)cc1)C(F)(F)F (stereo not drawn)	2135	/	/	1	2.2	-25	10
Cc1cc(OC(=O)c2ccccc2[N+](=O)[O-])c([N+](=O)[O-])c(=O)[nH]1	4081	4	9	-3	3.5	-12	6
CCCn1c(SCC(=O)Nc2ccc3c(c2)CCC3)n[nH]c1=O	10203	0	0	-2	6.5	4	2
Cc1ccc2[nH]c(=O)c3cc(C(=O)NCC4CCCO4)sc3c2c1 (stereo not drawn)	2589	0	6	1	2.7	-22	-5
Nc1ccccc1-c1nnc2n1CCCCC2	3597	-3	2	0	4.1	-2	6
CSc1nc2ccc(S(=O)(=O)N(C)C)cc2s1	20777*	4	-3	-1	0.8	-19	1
CCNS(=O)(=O)c1ccc(CCC(=O)N2CCOCC2)cc1	3979	-3	3	8	1.5	-41	8
Cc1ccnc(NC(=O)CNC(=O)c2ccc3c(c2)OCO3)c1	4369	1	-1	-4	1.0	-13	11
CCN(c1ccccc1)S(=O)(=O)c1ccc(C(=O)Oc2ccc(C(C)=O)cc2)cc1	10378	0	1	5	3.0	-22	7
Cc1ccccc1-c1nc(P(=O)(c2ccccc2)c2ccccc2)c(N2CCOCC2)o1	4680	-8	-8	-9	0.3	-18	2
O=C(Nc1cc(F)ccc1F)C1CCCO1 (stereo not drawn)	10167	10	10	3	0.8	-11	-1
CCc1cc(C(=O)NNC(=O)CCN2CCN(c3ccccc3)CC2)sc1C	5857	17	2	3	1.8	4	1
COC(=O)CCCC(=O)N1CCCC(C(=O)c2ccc(OC)cc2C)C1 (stereo not drawn)	3184	7	12	-11	5.8	-9	10
CCOc1ccccc1Cn1c(=O)sc2ccccc21	2133	1	-2	6	0.0	2	7
CC(CCc1ccccc1)NC(=O)COC(=O)c1ccccc1Br (stereo not drawn)	3826	12	3	-1	4.9	-18	5
O=C(N/N=C/c1ccc(Br)cc1)c1ccc(Br)o1	2424	/	/	9	/	-95	/
c1ccc2c(c1)OCC(c1nnc3sc(-c4cnccn4)nn13)O2 (stereo not drawn)	11185	-2	-4	2	1.5	-12	2
O=C(CSCCO)Nc1ccc([N+](=O)[O-])cc1	2293	7	10	2	6.2	-38	6
CN(C[C@H](CC1CCCCC1)N(C[C@H](Cc1ccccc1)N(CCc1ccccc1)N=O)N=O)N=O	3818	/	/	-13	/	-5	/
Cc1cc(C)c(S(=O)(=O)Nc2cccc(C(=O)O)c2)cc1S(=O)(=O)Nc1cccc(C(=O)O)c1	5351	13	-1	-13	0.5	2	19
